Assay outcomes: PubChem BioAssay, several laboratories
LANA-H2B inh: blocks KSHV LANA binding to histone H2A/H2B. Q9QR71. cell-free LANA-H2A/H2B peptide, fluorescence polarization. inhibition, % (no concentration beside the values). 0.6% of 320,000 active. AID 2629; in the data active = inhibition mostly above about 10%, no sharp cut-off; inactive = mostly below about 6.7%;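 also: stock transfer was 7.5 nL into about 10 µL; 0% = median of vehicle wells and 100% = median of positive control wells; one replicate is shown; the record names a cut of 25% in any replicate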
Target sequence (Q9QR71 whole entry, looked up): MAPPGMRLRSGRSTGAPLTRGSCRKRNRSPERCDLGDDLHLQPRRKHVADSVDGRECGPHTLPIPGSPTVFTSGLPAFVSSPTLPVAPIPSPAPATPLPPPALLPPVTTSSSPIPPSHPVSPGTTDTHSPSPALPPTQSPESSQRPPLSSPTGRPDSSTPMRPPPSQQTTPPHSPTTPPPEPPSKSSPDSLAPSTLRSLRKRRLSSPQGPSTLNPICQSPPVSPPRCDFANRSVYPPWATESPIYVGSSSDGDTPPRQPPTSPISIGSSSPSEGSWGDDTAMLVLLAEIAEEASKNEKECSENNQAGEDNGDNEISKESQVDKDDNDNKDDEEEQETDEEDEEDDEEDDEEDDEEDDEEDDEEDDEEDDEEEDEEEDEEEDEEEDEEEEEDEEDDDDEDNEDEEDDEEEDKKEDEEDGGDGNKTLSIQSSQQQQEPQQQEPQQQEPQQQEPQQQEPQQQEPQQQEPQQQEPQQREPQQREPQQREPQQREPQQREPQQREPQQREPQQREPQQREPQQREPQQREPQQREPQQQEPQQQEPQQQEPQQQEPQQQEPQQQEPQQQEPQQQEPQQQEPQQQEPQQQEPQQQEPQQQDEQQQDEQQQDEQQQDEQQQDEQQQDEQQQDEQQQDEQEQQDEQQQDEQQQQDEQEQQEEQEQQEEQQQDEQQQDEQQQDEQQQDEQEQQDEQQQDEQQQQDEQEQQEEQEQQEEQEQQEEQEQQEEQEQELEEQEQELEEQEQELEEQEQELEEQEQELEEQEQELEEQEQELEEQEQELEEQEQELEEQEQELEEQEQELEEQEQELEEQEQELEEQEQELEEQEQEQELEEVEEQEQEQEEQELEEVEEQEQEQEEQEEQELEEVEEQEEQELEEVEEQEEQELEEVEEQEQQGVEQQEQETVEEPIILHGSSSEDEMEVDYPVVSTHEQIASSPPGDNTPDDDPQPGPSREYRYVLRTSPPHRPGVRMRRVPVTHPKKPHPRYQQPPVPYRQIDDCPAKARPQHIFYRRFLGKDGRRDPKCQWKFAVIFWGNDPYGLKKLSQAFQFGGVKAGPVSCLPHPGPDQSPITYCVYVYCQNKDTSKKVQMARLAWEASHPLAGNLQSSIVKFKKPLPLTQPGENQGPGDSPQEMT
Calb FLC: C. albicans growth modulation with fluconazole. C. albicans CaCi-2 (fluconazole-resistant clinical isolate) + fluconazole, Alamar Blue growth, 48 h. growth inhibition, % (no concentration beside the values). 0.57% of 300,000 active;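 active = most replicates above 75%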;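 also: all wells also contain fluconazole at 8 µg/ml as a sub-toxic cotreatment; 0% = median of DMSO wells and 100% = median of geldanamycin control wells; wells of about 8 µL received 7.5 nL stock; the first replicate is given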
B2AR ag: activates human beta-2 adrenergic receptor causing internalization | 0.43% of 340,000 active | Am2.2-beta2AR cells, FAP receptor internalization, flow cytometry; reference of the scale not given here | response, % (no concentration beside the values) | AID 504454;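 active = response above a set limit, near 3 SD of response in nonfluorescent compounds, cut at about 42% in these data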;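 also: stock transfer was 100 nL into about 11 µL; a reference agonist was the positive control; negative values mostly stem from fluorescent compounds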
Beta cell apopt: blocks beta cell apoptosis; INS-1E cytokine-induced death, ATP luminescence, 48 h; percent of positive-control rescue, neutral wells zero; 0.8% of 300,000 active; protection from apoptosis, % (test concentration not listed);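 active = all replicates at 75% or more, or half of them and the mean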;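 also: 0% = cytokine-treated negative control wells and 100% = positive control rescue; higher means more ATP so stronger rescue from cytokine killing; wells of about 40 µL received 100 nL stock; the first replicate is given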
ALR H2O2 inh: human ALR oxidase inhibition via reduced H2O2; P55789; purified ALR, DTT oxidation, H2O2 HRP-luminol luminescence; inhibition, % (concentration not given with the values); 3.8% of 290,000 active;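 active = mean and each replicate at 75% or more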;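 also: stock transfer was 7.5 nL into about 7.5 µL; 0% = neutral wells and 100% = wells with inactivated enzyme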
rRNA inh HTS: inhibits bacterial ribosomal RNA function over humanized ribosomes; E. coli WT GFP vs humanized-ribosome RFP mutants, fluorescence, 24 h; stronger effect = lower value; DMSO median 0, no signal -100; GFP signal change (wild-type ribosome), % (concentration not given with the values); 1.6% of 350,000 active; AID 720706;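 active = significant combined selectivity score with lowered wild-type GFP, culture density cut under 30%, mutant RFP and density less affected; inactive = any of these conditions unmet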; also: one replicate is shown; some compounds called inactive have numbers as strong as hits
T cruzi inh: blocks replication of Trypanosoma cruzi | T. cruzi beta-gal in NIH3T3, luminescence, 90 h | inhibition, % (no concentration beside the values) | 1.4% of 300,000 active | AID 1885;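 active = mean inhibition across valid replicates above about 55%, limit read from the data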;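 also: signal also drops with host cell toxicity which is not excluded here; 0% = plate median of DMSO wells and 100% = zero luminescence signal; higher percent means less beta-gal luminescence so fewer parasites; stock transfer was 50 nL into about 50 µL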
Bfl-1 A1 inh: inhibitors of the anti-apoptotic protein A1, read as caspase activation; MEF A1-2A-BIM cells, Caspase-Glo 3/7 luminescence, 3 h; percent of clofoctol response, vehicle zero; caspase activation, % (test concentration not listed); 0.066% of 330,000 active; AID 2462;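 active = over half of replicate activation scores above 10%, or exactly half above 10 with the replicate mean above 10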;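 also: wells of about 30 µL received 50 nL stock; many hits fall short of the cut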
rRNA inh HTS OD600: further read-out of rRNA inh HTS, marked with its call; OD600 change, %; measured here: OD600 growth;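 optical density of the mix in the first replicate; 0 = DMSO median and -100 = no signal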
rRNA inh HTS RFP: also measured in rRNA inh HTS; calls as there; RFP signal change, %; measured here: RFP humanized mutant strains;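 first replicate; 0 = DMSO median and -100 = no signal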
Numbers without * were called inactive; / = no result given. Only part of the results is shown, so the mix of outcomes need not match the whole.

SMILES | LANA-H2B inh | Calb FLC | B2AR ag | Beta cell apopt | ALR H2O2 inh | rRNA inh HTS | rRNA inh HTS OD600 | rRNA inh HTS RFP | T cruzi inh | Bfl-1 A1 inh
CS(=O)(=O)Nc1ccccc1C(=O)Nc1ccccc1Cl | -2.2 | 2 | 4 | 3 | -7 | / | / | / | 2 | -0.9
FC(F)Oc1ccc(N=C2SCC3CCCCN23)cc1 (centres undefined) | -6.1 | -14 | -5 | -3 | -11 | -1 | -18 | 4.4 | -13 | 0.4
Cc1cc([N+](=O)[O-])ccc1NC(=O)CCC(=O)N1CCCC1 | 0.3 | 4 | -1 | -5 | -4 | -2 | 10 | -1.4 | -3 | 0.3
COc1ccc(OC)c(NC(=O)CSc2nnc(CNc3ccc(F)cc3)o2)c1 | 3.5 | -5 | 5 | -16 | 91* | / | / | / | -10 | 0.5
CS(=O)(=O)Nc1cccc(S(=O)(=O)N2CCN(C(=O)c3ccccc3)CC2)c1 | 4.3 | -4 | 9 | -1 | -7 | 10 | 0 | 1.4 | 2 | 0.8
CC(=O)Nc1ccc(S(=O)(=O)NCc2nnnn2-c2ccc(Cl)cc2)cc1 | 1.7 | 1 | -9 | 1 | 2 | -16 | -1 | -5.5 | -6 | -0.1
CCCCC(Sc1nc(N)c(NC(=O)c2ccc(OCC)cc2)c(=O)[nH]1)C(=O)O (centres undefined) | -1.0 | 26 | -5 | -4 | 3 | 4 | 4 | -1.2 | -27 | 0.3
O=C(O)C1C2C=CC(C2)C1C(=O)NCCc1ccncc1 (centres undefined) | -1.6 | 25 | 7 | -8 | 0 | / | / | / | -8 | 0.6
O=C(CN1C(=O)C2C3C=CC(C3)C2C1=O)N1CC(=O)N(CCc2ccccc2)C(=O)C1 (centres undefined) | -6.5 | -7 | -7 | -5 | / | / | / | / | -15 | 0.0
COc1ccc(-c2nc3ccccc3c(=O)n2CCCN2CCOCC2)cc1 | 16* | 20 | -19 | -7 | / | 12 | 4 | 2.1 | -1 | 0.5
Cc1ccc(-c2nnc(N3CCOCC3)c3ccccc23)cc1S(=O)(=O)NCC1CCCO1 (centres undefined) | 1.6 | / | -7 | -5 | -10 | / | / | / | 13 | 1.1
COc1cc(NC(=O)c2ccco2)c(OC)cc1NC(=O)CCC(=O)Nc1cc(C)ccc1C | 4.2 | / | -7 | 2 | -18 | / | / | / | / | 0.2
Cc1cc(C)c2ccc(Cl)cc2n1 | -7.9 | -2 | -1 | -6 | -4 | 3 | -2 | -2.2 | -17 | -0.2
O=C(O)CCN1C(=O)C(=C2CCCCCC2)SC1=S | 1.0 | 3 | 5 | -14 | 6 | / | / | / | -5 | 0.6
CCc1nnc(NC(=O)CSc2nnc(Cc3ccccc3)n2Cc2ccccc2)s1 | -1.0 | -7 | -3 | -5 | -10 | / | / | / | -3 | 0.3
FC(F)(F)c1ccc(-c2nnc(-c3cccnc3)o2)cc1 | -4.0 | 4 | -11 | -4 | -7 | 10 | 4 | 3.5 | -13 | 0.1
O=C(NCc1cccnc1)c1cccn1-c1ncc(C(F)(F)F)cc1Cl | -0.9 | 2 | -1 | -4 | -13 | 10 | 8 | 0.0 | -13 | -1.3
COc1ccc(-n2c(SCC(=O)Nc3ccc4c(c3)OCO4)nc3ccccc3c2=O)cc1 | -1.5 | -6 | -9 | -4 | -2 | / | / | / | 30 | -0.5
CC(=O)c1cccc(NC(=O)CCc2nnc3ccc(NCc4ccco4)nn23)c1 | 2.1 | 1 | 3 | -7 | 20 | -8 | -14 | -0.8 | 2 | 1.0
COc1cc2nc(NC(=O)c3ccccc3)sc(=O)c2cc1OC | / | 3 | 2 | / | / | 12 | 2 | -0.5 | -6 | /

Profiles, quoted from the list:
Results for COc1cc2nc(NC(=O)c3ccccc3)sc(=O)c2cc1OC : LANA-H2B inh: /; Calb FLC: 3; B2AR ag: 2; Beta cell apopt: /; ALR H2O2 inh: /; rRNA inh HTS: 12; rRNA inh HTS OD600: 2; rRNA inh HTS RFP: -0.5; T cruzi inh: -6; Bfl-1 A1 inh: /
Results for CC(=O)Nc1ccc(S(=O)(=O)NCc2nnnn2-c2ccc(Cl)cc2)cc1 : LANA-H2B inh: 1.7; Calb FLC: 1; B2AR ag: -9; Beta cell apopt: 1; ALR H2O2 inh: 2; rRNA inh HTS: -16; rRNA inh HTS OD600: -1; rRNA inh HTS RFP: -5.5; T cruzi inh: -6; Bfl-1 A1 inh: -0.1

Returning to the listing, repeating the 4 entries before the break.
SMILES | LANA-H2B inh | Calb FLC | B2AR ag | Beta cell apopt | ALR H2O2 inh | rRNA inh HTS | rRNA inh HTS OD600 | rRNA inh HTS RFP | T cruzi inh | Bfl-1 A1 inh
O=C(NCc1cccnc1)c1cccn1-c1ncc(C(F)(F)F)cc1Cl | -0.9 | 2 | -1 | -4 | -13 | 10 | 8 | 0.0 | -13 | -1.3
COc1ccc(-n2c(SCC(=O)Nc3ccc4c(c3)OCO4)nc3ccccc3c2=O)cc1 | -1.5 | -6 | -9 | -4 | -2 | / | / | / | 30 | -0.5
CC(=O)c1cccc(NC(=O)CCc2nnc3ccc(NCc4ccco4)nn23)c1 | 2.1 | 1 | 3 | -7 | 20 | -8 | -14 | -0.8 | 2 | 1.0
COc1cc2nc(NC(=O)c3ccccc3)sc(=O)c2cc1OC | / | 3 | 2 | / | / | 12 | 2 | -0.5 | -6 | /
c1cncc(CSc2nnc3ccc(-c4ccncc4)nn23)c1 | 0.7 | 10 | -11 | -7 | -9 | 8 | 1 | -0.3 | -7 | -0.7
COc1ccc(CCNC(=O)CCc2ccc(S(=O)(=O)NC(C)C)cc2)cc1OC | 0.8 | 10 | 0 | 4 | -5 | / | / | / | -9 | -0.4
CC1(C)Cn2c(nnc2-c2cccc(O)c2)S1 | -1.6 | -6 | -4 | -6 | 2 | / | / | / | -8 | -0.5
Cc1ccc(NC(=O)N2CCCC2)cc1Cl | 4.3 | 14 | -2 | -1 | 2 | -14 | 2 | -1.3 | 3 | 0.3
CCS(=O)(=O)N1CCN(S(=O)(=O)c2ccc(F)cc2)CC1 | -1.6 | -3 | 3 | 1 | -3 | / | / | / | -6 | -0.7
C#CCn1c(=O)cc(C)c2ccccc21 | -0.1 | 4 | -2 | -5 | -15 | 5 | 5 | -3.2 | -7 | 0.1
COc1ccc(NC(=O)c2nc3nccc(C)n3n2)cc1S(=O)(=O)N1CCOCC1 | -0.1 | / | 1 | 2 | -8 | 13 | 24 | 2.9 | / | -0.2
O=C(O)c1nn(CC(=O)N2CCC(Cc3ccccc3)CC2)c(=O)c2ccccc12 | -0.3 | -17 | 0 | 3 | -7 | 0 | 1 | 1.1 | 16 | -5.6
CCOC(=O)C1CCCN(Cc2ccccc2Cl)C1 (centres undefined) | 3.2 | 11 | 0 | 4 | 6 | / | / | / | 22 | -1.8
Cc1ccc(S(=O)(=O)N2CCOCC2)cc1C(=O)NCc1ccc(F)cc1 | 1.9 | 17 | -5 | -8 | -16 | / | / | / | 9 | 0.0
CC(=O)c1ccc(OC(=O)CCc2nc3ccccc3s2)cc1 | 2.2 | -4 | 18 | -1 | 93* | 17 | 16 | 1.4 | -12 | 0.3
Cc1ccc2nc3c(cc(C(=O)NCCc4ccccc4)c(=N)n3CC3CCCO3)c(=O)n2c1 (centres undefined) | -0.1 | -8 | -4 | 6 | 4 | 6 | 7 | -2.7 | 32 | 0.1
COCCCNC(=O)Cn1nnc(-c2ccc(NC(=O)c3ccccc3OC)cc2)n1 | 4.3 | 2 | -13 | -8 | 0 | / | / | / | -11 | -0.4
O=C1Nc2ccccc2SC(c2ccccc2)C1O (centres undefined) | -1.9 | -6 | -6 | -7 | -2 | / | / | / | 2 | 0.8
Fc1ccccc1NC(=S)N(CCN1CCCCCC1)Cc1cccs1 | -4.9 | -8 | 9 | 0 | / | 7 | 7 | 0.3 | 13 | 1.7
CCOC(=O)N1CCN(C(=O)c2cccc(NS(=O)(=O)c3ccc(F)c(F)c3)c2)CC1 | 0.9 | -5 | 1 | -3 | -9 | / | / | / | 2 | 0.9
CC1CC(C)CN(S(=O)(=O)c2ccc(C(=O)NN3CCOCC3)cc2)C1 (centres undefined) | -1.0 | -1 | -13 | 0 | -4 | 3 | 7 | 0.5 | -9 | -0.1
CCS(=O)(=O)N1Cc2ccccc2CC1C(=O)Nc1cccc(C)c1 (centres undefined) | 0.3 | -10 | 2 | -5 | -6 | -12 | -11 | -3.7 | -8 | -0.6
CC(C)(C)C(=O)Nc1ccc(S(=O)(=O)Nc2ccccn2)cc1 | -0.5 | -15 | 3 | -12 | -23 | 7 | 3 | 1.2 | 8 | -0.3
CCNc1nc(N2CCOCC2)nc(N(c2ccccc2)c2ccccc2)n1 | -3.0 | -5 | -3 | -10 | / | / | / | / | 5 | -1.4
CC(C)(C)NC(=O)NC(=O)COC(=O)C1=COCCO1 | 0.6 | -3 | 3 | -1 | -2 | 8 | 11 | 0.1 | -15 | -1.4
O=C(Nc1ccccc1)c1ccccc1OCC(O)CN1C(=O)c2ccccc2S1(=O)=O (centres undefined) | -2.5 | 1 | -2 | 0 | -21 | / | / | / | -5 | -0.3
CC(=O)Nc1c(C(=O)N2CCCCCC2)cnn1-c1ccccc1Cl | -0.6 | -1 | 1 | -4 | -3 | / | / | / | -8 | 0.6
COc1ccc(-c2ccc(OC)cc2C(=O)O)cc1 | -0.3 | -13 | 3 | -1 | 5 | / | / | / | -1 | 1.7
Cn1ncc(N=Cc2ccccc2O)c1C(=O)N1CCOCC1 | -0.1 | -4 | -1 | 4 | -1 | / | / | / | -1 | 0.1
Cc1ccccc1C(=O)NC(=S)Nc1ccc(Cc2ccncc2)cc1 | 1.5 | 22 | -3 | -5 | -2 | / | / | / | 31 | 1.4
CCCNC(=O)Cn1c(=O)cnc2ccccc21 | 0.6 | 28 | 8 | / | 6 | / | / | / | -7 | 0.2
COc1ccccc1N1CCN(C(=O)c2cc3c(=O)n4cccc(C)c4nc3s2)CC1 | 26* | 2 | 20 | 0 | -1 | 3 | 9 | -0.1 | 10 | 0.0
CCC(C)NC(=O)Cn1c(=O)n(-c2ccc(OC)cc2)c(=O)c2ccc(C(=O)NCc3ccc(C)cc3)cc21 (centres undefined) | -5.3 | 6 | 5 | 5 | -1 | 4 | 14 | 2.6 | -12 | -1.4
Cc1cccc(C)c1NC(=O)CN(C)C(=O)CC1OC(=O)c2ccccc21 (centres undefined) | 1.1 | 18 | -1 | / | 1 | 10 | 6 | 0.6 | -3 | 0.2
O=C(O)c1ccc(-c2ccc(-c3ccccc3)cc2)s1 | 1.0 | 9 | 6 | -2 | -2 | / | / | / | -5 | -6.9
CC(O)c1nc2ccc(C(=O)O)cc2[nH]1 (centres undefined) | -3.5 | 0 | 4 | -4 | 2 | 18 | 4 | 1.8 | -8 | 0.5
O=[N+]([O-])c1ccc2[nH]nc(-c3ccccc3)c2c1 | -3.7 | 0 | 3 | 0 | 0 | / | / | / | 19 | 0.0
Cc1nc(NC2CCCCC2)c2nnn(Cc3ccccc3Cl)c2n1 | 3.3 | 5 | -5 | 3 | 4 | 24 | 18 | 0.6 | 19 | -0.5
COc1ccccc1C(=O)Nc1ccncc1 | 16 | -3 | -3 | -1 | -1 | -5 | -1 | -3.1 | 5 | -0.2
Nc1nonc1-n1nnc(C(=O)N/N=C/c2ccccc2Br)c1CN1CCCC1 | -4.4 | -14 | 1 | 4 | / | 6 | 11 | 2.2 | -4 | 0.1
